Autofluor counter = flagged as autofluorescent in microsphere protease counterscreen | compound autofluorescence counterscreen, microsphere flow cytometry; hits give high values | fluorescence intensity (test concentration not listed) | 3.1% of 360,000 active | AID 624483;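 active = at least 3 SD above the mean of all compounds, about 16000 in these data; inconclusive = too few beads counted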;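 also: 100 nL of 1 mM stock went into each well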
Sa ugtP lethal = compounds lethal to S. aureus RN4220 ugtP deletion mutant | growth inhibition, % (concentration not given with the values) | AID 1259309 | 0.54% of 330,000 active | OD600 growth, 16 h; some inactives read as strong as hits;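 active = z-score under -3 and OD600 up to 0.15 on both plates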;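 also: plate controls were untreated wells for no effect and antibiotic for full effect; wells of about 80 µL received 100 nL stock; the first replicate is given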
RN4220 kill = S. aureus RN4220 growth inhibition; 0.33% of 330,000 active; inhibition, % (test concentration not listed); OD600, 16 h;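 active = z-score of -3 or lower and OD600 up to 0.18 on both plates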;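 also: plate controls were untreated cells for no effect and reference antibiotic for full effect; stock transfer was 100 nL into about 80 µL; one replicate is shown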
BJeLR viability = BJeLR cell viability loss; inhibition, % (concentration not given with the values); BJeLR (HRASV12) viability, CellTiter-Glo ATP luminescence, 48 h; reference of the scale not given here; 0.17% of 300,000 active;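 active = replicate mean above 50%; inconclusive = above 50% but judged a plate artefact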;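 also: 50 nL library stock added to about 25 µL; numbers are from one replicate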
Mtb hypoxia inh = reduces hypoxia-regulated biosensor signal in M. tuberculosis; M. tuberculosis hypoxia-regulated fluorescent reporter, fluorescence; fluorescence inhibition, % (no concentration beside the values); 0.1% of 300,000 active; AID 1159583;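 active = 35 to 45% if threefold the growth effect, above 45% if 1.5-fold the growth effect; inactive = the rest, general growth blockers included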;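 also: wells of about 50 µL received 100 nL stock; 0% = vehicle wells and 100% = reference inhibitor wells; whole bacteria with a GFP reporter of the hypoxia response; strong numbers were not always called active; many hits fall short of the cut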
PrP UTR inh = inhibition of PrP 5' UTR reporter expression; cell-based PrP 5' UTR mRNA reporter, plate reader; inhibition, % (concentration not given with the values); 0.35% of 340,000 active;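 active = every replicate at 50% or more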;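 also: 0 = median of the neutral control wells; tested in H4 reporter cells; numbers are from one replicate; inactives centre near -14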
Mtb hypoxia inh growth = further read-out of Mtb hypoxia inh, marked with its call; growth inhibition, %; measured here: M. tuberculosis growth (absorbance);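 0% = vehicle and 100% = reference antibiotic; read after six days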
* = called active by the depositor; ? = inconclusive; . = not tested or not shown.

SMILES	Autofluor counter	Sa ugtP lethal	RN4220 kill	BJeLR viability	Mtb hypoxia inh	Mtb hypoxia inh growth	PrP UTR inh
CC(=O)Oc1ccc2oc(C)c(C(=O)N3CCOCC3)c2c1	8218	9	9.3	3	17	7	-11
O=C(Nc1ccccc1OC(F)(F)F)c1ccc([N+](=O)[O-])cc1	4164	12	9.2	3	10	7	1
CCC(C(=O)OCC(=O)c1c(N)n(CC(C)C)c(=O)n(C)c1=O)c1ccccc1 (stereo unspecified)	.	-2	-0.5	6	-2	-6	-2
COc1ccc(Cl)cc1S(=O)(=O)N1CCC(C(=O)NCc2ccco2)CC1	4461	9	-0.6	1	2	-5	-3
Nc1nonc1-c1noc(-c2ccccc2Br)n1	9138	0	14	3	3	11	-31
CCOc1ccc(NC(=O)CN(C)C(=O)C2CC(=O)N(Cc3ccco3)C2)cc1OCC (stereo unspecified)	?	7	3.1	.	2	7	-15
CCCCCCCCSc1nnc(N=CN(C)C)s1	.	14	11	.	4	-4	.
COc1ccc2cc(C(=O)C3CCCN(C(=O)c4sc(C)nc4C)C3)ccc2c1 (stereo unspecified)	4700	7	4.4	-5	6	3	-17
Cc1ccc(NC(=O)NCc2ccccn2)c(C)c1	5483	1	1.4	.	2	9	0
Cc1c(Cl)cccc1NC(CC(=O)c1ccccc1)C(=O)OCC(=O)c1cccs1 (stereo unspecified)	10763	3	-1.6	13	6	7	-14

Random excerpt: two records from the list, in no set order.
SMILES	Autofluor counter	Sa ugtP lethal	RN4220 kill	BJeLR viability	Mtb hypoxia inh	Mtb hypoxia inh growth	PrP UTR inh
Nc1nonc1-c1noc(-c2ccccc2Br)n1	9138	0	14	3	3	11	-31
Cc1ccc(NC(=O)NCc2ccccn2)c(C)c1	5483	1	1.4	.	2	9	0

Later entries:
SMILES	Autofluor counter	Sa ugtP lethal	RN4220 kill	BJeLR viability	Mtb hypoxia inh	Mtb hypoxia inh growth	PrP UTR inh
COc1cccc(OC)c1C(=O)Nn1c(-c2cccs2)nc2ccccc2c1=O	2572	9	1.6	-1	10	-5	-10
Cc1c(C(=O)Nc2ccc(S(=O)(=O)Nc3ncccn3)cc2)oc2ccc(F)cc12	3787	0	-2.4	-3	5	8	-8
CC12CN3CC(C)(CN(C1)C3c1ccc3c(c1)OCO3)C2O (stereo unspecified)	3878	0	5.3	-1	3	-5	-19
CCn1c2ccccc2c2cc(NC(=O)C(C)Oc3ccc(OC)cc3)ccc21 (stereo unspecified)	2662	18	1.0	8	1	-2	-14
COc1ccc(C(c2nnnn2C2CCCC2)N2CCN(C3CCCC3)CC2)cc1OC (stereo unspecified)	3570	1	-4.7	-2	.	.	8
CCCn1c(SCC(=O)Nc2cccc(C)n2)nnc1-c1ccco1	4362	1	22	3	.	.	-6
COc1ccc(S(=O)(=O)n2cnc3ccccc32)c(C)c1	3076	-6	4.1	1	13	3	0
Cc1ccc(NC(=O)CSc2nc3c(c(=O)[nH]2)CCC3)cc1C	17130*	-18	7.4	-9	7	8	-16
CC(C)(C)NC(=O)COC(=O)c1c2c(nc3ccccc13)CCC2	3401	-4	5.2	-6	21	15	-12
COc1ccc2nc(NC3=NCCC3)sc2c1	3293	7	4.0	-3	2	-3	-69
CN(C(=O)COC(=O)c1cncc(Br)c1)C1CCS(=O)(=O)C1 (stereo unspecified)	4136	1	3.6	-3	-5	5	3
CCc1c(C)sc(NC(=O)Cc2ccccc2OC)c1C(=O)N1CCOCC1	4978	-3	-0.8	7	-5	0	-16
CCOC(=O)CN1N=C(/C=C/c2ccccc2)CCC1=O	2839	14	1.0	-5	.	.	49
COC(=O)c1ccc(-c2c(-c3ccccc3)ncc3cc(OC)c(OC)cc23)cc1	2812	98*	82	.	8	10	-4
CCOC(=O)CC1=Nc2ccccc2NC(=O)C1	10492	5	4.5	.	2	6	-17
O=[N+]([O-])c1cnc(Sc2ccncn2)s1	3905	100*	81	62*	11	5	7
CC(=O)Oc1ccc2cc(-c3nc4ccccc4n3C)c(=O)oc2c1	5799	7	3.6	-7	1	4	0
O=C1C(=O)N(CCCN2CCOCC2)C(c2ccc([N+](=O)[O-])cc2)/C1=C(\O)c1ccc2c(c1)OCCO2 (stereo unspecified)	5389	11	1.5	8	2	-7	-23
COc1cccc(C(=O)NCc2ccc(-c3nc4ccccc4s3)cc2)c1	3439	-12	-9.4	2	17	-6	-52
COc1ccc(S(=O)(=O)Nc2cccc3c2O[C@H](CN(C)Cc2ccc(Oc4ccccc4)cc2)[C@@H](C)CN([C@H](C)CO)C3=O)cc1	3677	12	-10	.	3	7	-16

Filtered by structure: those above with two or more sulfur atoms (2)
SMILES	Autofluor counter	Sa ugtP lethal	RN4220 kill	BJeLR viability	Mtb hypoxia inh	Mtb hypoxia inh growth	PrP UTR inh
CCCCCCCCSc1nnc(N=CN(C)C)s1	.	14	11	.	4	-4	.
O=[N+]([O-])c1cnc(Sc2ccncn2)s1	3905	100*	81	62*	11	5	7

Remaining list, next part.
SMILES	Autofluor counter	Sa ugtP lethal	RN4220 kill	BJeLR viability	Mtb hypoxia inh	Mtb hypoxia inh growth	PrP UTR inh
Cc1cc(C(=O)CN2C(=O)C(=O)N(Cc3ccccc3)C2=O)c(C)n1-c1ccccc1F	4504	-2	0.8	-1	17	13	-58
CCOc1cc(C=Nn2c(C)nc3ccccc3c2=O)ccc1O	.	7	0.6	.	10	0	.
OCCCNCc1ccc(-c2ccccc2)cc1	4298	2	-0.7	7	11	3	-45
Cc1cccc(NC(=S)N(CCN(C)C)C(C)c2cccnc2)c1 (stereo unspecified)	3343	.	.	0	.	.	1
CC(C)Cc1nc(N2CCOCC2)c(C#N)c2c1COC(C)(C)C2	2723	-7	3.8	-7	.	.	-15
Oc1ccccc1C(=S)N1CCCCCC1	19817*	-2	2.9	5	0	5	-14
CCOC(=O)C(NC(=O)c1ccccc1)(Nc1nnc(C)s1)C(F)(F)F (stereo unspecified)	3166	8	5.2	2	1	0	1
Cc1nc2ccccc2n1CC(=O)N/N=C\c1ccccn1	6910	.	.	-2	.	.	-7
Cc1ccc(CNc2nc(C)nc3sc4c(c23)CCC4)cc1	17440*	-11	8.2	8	14	6	-3
CCCCN(C)CCC(=O)Nc1ccc(OC)cc1OC	6717	10	4.3	-13	12	6	-22
Cc1[nH]c2ccc3ncccc3c2c1C	2474	15	5.6	7	6	2	-21
O=C(CN1CCN(c2ccccc2F)CC1)Nc1ccccc1F	2079	-2	1.3	3	.	.	11
Cc1ccc(NC(=S)N2CCCN(Cc3ccc(F)cc3)C2)c(C)c1	3398	12	0.1	2	7	3	-28
Cc1cccc(C)c1NC(=O)CN1C(=O)CCSc2ccc(S(=O)(=O)N3CCCC3)cc21	5102	2	5.9	1	2	3	-15
O=C(O)Cn1cc(C=C2C(=O)NC(=O)NC2=O)c2ccccc21	2906	-1	2.0	-1	-4	-7	-11
Cc1ccc(Cn2c(CCC(=O)O)nc3ncccc3c2=O)cc1	3154	14	6.1	8	6	-4	-9
Cc1ccccc1NS(=O)(=O)c1ccc(OCC(=O)N2CCCCC2)cc1	10774	-1	5.2	-6	3	12	.
CCc1c(C(=O)NNC(=O)Nc2ccc3c(c2)OCO3)csc1C	6723	1	2.2	11	11	-3	-24
CCCCNC(=O)CCn1c(=O)c2ccccc2n(Cc2ccc(Cl)cc2)c1=O	2760	9	1.3	-2	10	-4	-4
[N-]=[N+]=CC(=O)CCCN1C(=O)c2ccccc2C1=O	4315	0	7.4	-2	8	14	-13

One compound at a time, from the list above. Values in the order: Autofluor counter | Sa ugtP lethal | RN4220 kill | BJeLR viability | Mtb hypoxia inh | Mtb hypoxia inh growth | PrP UTR inh
`Cc1ccccc1NS(=O)(=O)c1ccc(OCC(=O)N2CCCCC2)cc1` in the list: 10774 | -1 | 5.2 | -6 | 3 | 12 | .
`CCc1c(C(=O)NNC(=O)Nc2ccc3c(c2)OCO3)csc1C` in the list: 6723 | 1 | 2.2 | 11 | 11 | -3 | -24

(continued)
SMILES	Autofluor counter	Sa ugtP lethal	RN4220 kill	BJeLR viability	Mtb hypoxia inh	Mtb hypoxia inh growth	PrP UTR inh
Cc1c(NC(=S)NN=Cc2ccc(Br)cc2)c(=O)n(-c2ccccc2)n1C	.	6	1.3	.	-8	5	.
CNC(=O)/C(C#N)=C1/SC(Cc2ccc(F)cc2)C(=O)N1c1ccccc1 (stereo unspecified)	3895	8	4.6	-16	8	1	-9
COc1ccc(NC(=O)CSc2nnc(Cc3cccs3)n2-c2ccc(C)cc2)cc1	23035*	-9	7.4	-1	13	6	-14
N[C@@H](Cc1ccc(O)cc1)c1nnc([C@H](CCC(=O)O)NC(=O)C2CCNCC2)o1	3521	.	.	3	.	.	-26
Cc1ccccc1CN1CCN(Cc2ccc3cccc(F)c3n2)CC1CCO (stereo unspecified)	4585	7	2.4	-16	-1	-6	-22
O=C(c1ccccc1)c1nc[nH]c1C(=O)Nc1ccccn1	2837	-2	5.4	3	8	8	-24
O=C(CN1CCSCC1)N/N=C/c1ccccc1F	23296*	.	.	-13	.	.	-18
CC[C@@H]1[C@H]2CCCC(=O)N3CC[C@@H](C[C@@H]1OC(=O)NCc1ccccc1)[C@@H]23	5080	.	.	-7	.	.	-13
COCC(C)NCc1cccc(C)c1 (stereo unspecified)	3172	1	0.6	-9	.	.	-16
COC1CCCN(C(=O)c2ccc3nc(Cc4cccc(Cl)c4)oc3c2)C1 (stereo unspecified)	5563	.	.	-15	.	.	-22
CCOc1ccc(C(=O)C2CCN(C(=O)c3ccc([N+](=O)[O-])cc3)CC2)cc1	3376	2	5.7	-13	7	-1	-16
O=S(=O)(Nc1nc2ccccc2s1)c1cc(F)ccc1F	5271	1	11	4	2	-3	-7
Cc1ccc(Nc2cccccc2=O)cc1	3478	7	11	-12	5	-1	-67
O=C(CSc1nnc(-c2ccccc2F)o1)OCc1ccccc1	5634	-6	-3.0	4	-1	-3	-15
CN(c1ccc(OCC(=O)NC2CCCC2)cc1)S(=O)(=O)c1cccs1	4323	0	7.2	1	12	3	-14
Cc1nn(-c2cc(C(F)(F)F)ccn2)c(=O)o1	3968	13	2.8	-1	4	3	-5
O=C(Nc1cccc2cccc(NC(=O)c3ccco3)c12)c1ccco1	9047	-7	4.3	2	4	-9	-19
C=CCNc1ccccc1S(=O)(=O)NCc1ccccc1	2907	-5	7.8	.	3	2	-10
NS(=O)(=O)c1ccc(CCNC(=O)C2CCN(c3ncnc4c3nc3n4CCCCC3)CC2)cc1	4825	2	0.2	-6	3	7	-32
COc1cc2c3cc1Oc1cc(ccc1O)CC1c4c(cc(OC)c(O)c4Oc4cccc(c4)CC3N(C)CC2)CC[N+]1(C)C (stereo unspecified)	.	-5	6.6	.	2	-5	.
COc1ccc(/C=N\NC(=O)c2cc(O)c(O)c(O)c2)cc1CN1CCN(c2ccc(F)cc2)CC1	1748	.	.	-3	.	.	10
Cc1nn(C(=O)c2cccc([N+](=O)[O-])c2)c(C)c1Cl	3539	1	3.1	3	12	-2	-18
CCN1C[C@@H]2[C@@H]3C(=O)N(C)C(=O)[C@@H]3[C@](Cc3ccccc3)(C(=O)OC)N2C1=NCc1ccccc1	3810	0	0.8	.	3	2	-8
O=C(Nc1ccccc1-c1nnn(CC(=O)N2CCN(c3ccccc3)CC2)n1)c1cccs1	10129	-20	-6.5	2	-5	4	-26
CCCN1C(=O)C(O)(C2CC(=O)CC(C)(C)O2)c2ccccc21 (stereo unspecified)	3824	-9	5.6	-2	.	.	-20
O=C(CNCC1CCCO1)N1CCCc2ccccc21 (stereo unspecified)	10776	9	4.4	-5	5	1	-25
O=C(CSc1n[nH]c(-c2cccs2)n1)NCc1ccc2c(c1)OCO2	22840*	-1	3.7	-6	8	7	-18
COC(=O)c1ccc(NC(=O)CSc2nc(C)cc(=O)[nH]2)cc1	9944	-9	8.5	5	5	6	-39
Cc1cc(C(=O)NC(Cc2c[nH]c3ccccc23)C(=O)O)c(C)o1 (stereo unspecified)	3891	8	0.9	-5	6	12	-19
CN(c1nc2nonc2nc1NC1CC1)C1CCOC1 (stereo unspecified)	2531	1	3.0	-4	-2	-4	-9
O=C(O)CN1C(=O)C2C3C=CC(C3)C2C1=O (stereo unspecified)	5303	8	1.4	6	4	6	-17
COc1ccc(CC(=O)Oc2ccc(C)cc2Br)cc1OC	2384	7	4.9	8	9	-7	-14
CN1CCc2c(sc3nc(SCC(N)=O)n(-c4ccc(Cl)cc4)c(=O)c23)C1	9910	0	3.9	-2	9	-5	7
CCOC(=O)c1cccc(NC(=O)CSc2nc3cccnc3n2C)c1	3175	3	-1.9	.	.	.	-2
COC(=O)C(=O)Nc1nnc(COc2ccccc2)s1	3515	11	-0.7	6	.	.	-23
COc1ccc(CNC(=O)C2CC(c3cccc(OC)c3)=NO2)cc1 (stereo unspecified)	19613*	-2	1.1	5	3	6	9
